Bioassay records deposited in PubChem BioAssay by several laboratories.
CBX7 AlphaScr – CBX7 chromodomain binding inhibitors, primary screen, biochemical, AlphaScreen | AlphaScreen His6-CBX7 / biotin-H3K27me3 peptide binding; stronger effect = lower value | normalised signal (fraction of DMSO) (concentration not given with the values) | 1.1% of 66,000 active | AID 1224903, 2016; in the data active means normalised signal below about 0.5;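 further: 100 nL library stock added to about 20 µL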
Target sequence (O95931 whole entry, looked up): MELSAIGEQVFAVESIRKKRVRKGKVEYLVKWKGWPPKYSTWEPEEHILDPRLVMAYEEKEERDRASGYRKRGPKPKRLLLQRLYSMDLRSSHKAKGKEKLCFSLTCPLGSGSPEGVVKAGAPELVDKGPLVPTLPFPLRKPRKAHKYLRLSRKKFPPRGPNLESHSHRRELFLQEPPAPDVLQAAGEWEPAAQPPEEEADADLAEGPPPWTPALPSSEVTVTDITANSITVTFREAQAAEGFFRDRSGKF
CBX7 AlphaScr z-score – also measured in CBX7 AlphaScr; calls as there; z-score; measured here: z-score of CBX7 signal; some inactives read as strong as hits; reference of the scale not given here;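 same signal on another scale; lower means less binding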
* hit, by the source's call.

structure | CBX7 AlphaScr | CBX7 AlphaScr z-score
CC1=C(C#N)C(c2ccccc2)C2=C(CC(C)(C)CC2=O)N1 (centres undefined) | 0.95 | -1
CCCCCc1nc(-c2nonc2N)no1 | 1 | 0.48
O=C(NCCCN1CCC(Cc2ccccc2)CC1)c1cc(-c2ccncc2)nc2ccccc12 | 1.1 | 0.87
COc1ccc(Nc2cc(C(=O)NCCC(C)C)c3ccccc3n2)cc1OC | 1.1 | 0.99
Nc1nnc(-c2ccc(Cl)cc2)s1 | 1.1 | 2.4
CCc1ccc(OC(C)C(=O)Nc2c(C(=O)c3ccc(C)cc3)oc3ccccc23)cc1 (centres undefined) | 1.4 | 0.9
Cc1sc2nc(Cc3ccccc3)nc(Nc3ccccc3F)c2c1C | 1.1 | 0.074
Cc1ccc(C(=O)c2oc3ccccc3c2NC(=O)Cc2ccccc2)cc1 | 1.2 | 0.69
COc1ccc(Cl)cc1NC(=O)CCc1c(C)nc2cc(-c3ccccc3OC)nn2c1C | 0.96 | -1
Cc1ccc(-c2nc3ccccc3s2)cc1NC(=O)c1ccccc1Cl | 1 | 1.8
Clc1ccc(Oc2nc(-c3ccncc3)nc3ccccc23)cc1 | 0.83 | -1.9
CCOc1cccc(C(=O)Nc2nnc(-c3ccc4c(c3)OCO4)s2)c1 | 1.1 | 1.2
O=C(CN1C(=O)COc2ccc(S(=O)(=O)N3CCCCCC3)cc21)NCc1ccc(Cl)cc1 | 1.1 | 1.5
Cc1noc(C)c1S(=O)(=O)N1CCCC(C(=O)NCc2ccc(F)cc2)C1 (centres undefined) | 1.1 | 0.59
Cc1ccc2c(c1)C(c1ccccc1)N(C(=O)c1ccc(S(=O)(=O)N3CCCC3)cc1)CC(=O)N2 (centres undefined) | 0.98 | -0.52
CCOc1ccc(CCNC(=O)c2cc3c(s2)CSC3)cc1OCC | 1.1 | 1.3
CCOc1ccc(-c2n[nH]c(C)c2-c2ccccc2)c(O)c1 | 0.74 | -1.2
CC1CCN(c2nc3ccc(C(=O)NCCCN4CC(C)CC(C)C4)cc3s2)CC1 (centres undefined) | 1.6 | 5.4
CC1CCN(CCCNC(=O)CCCn2c(=O)[nH]c3ccccc3c2=O)CC1 | 1.1 | 0.37
CCc1ccc2c(c1)c(=O)c(S(=O)(=O)c1ccccc1)cn2CC(=O)Nc1ccc(F)cc1 | 1 | 0.16
Cc1cc(-c2ccccc2)nn1-c1nc2ccccc2s1 | 0.94 | -0.73
CCc1ccc(NC(=O)CN(C)S(=O)(=O)c2cnc[nH]2)cc1 | 1 | 1
CC(=O)N1c2ccc(S(=O)(=O)Nc3ccc(C(C)C)cc3)cc2CC1C (centres undefined) | 0.74 | -1.1
O=C(c1ccc(C#CC2(O)CCCCC2)cc1)N1CCN(c2ccccc2)CC1 | 0.96 | -1.4
CC1(C)CC(=O)c2cc(OCC(=O)N3CCc4ccccc4C3)ccc2O1 | 0.97 | -0.25
COc1ccc(-c2nnc(Oc3ccc(NC(C)=O)cc3)c3ccccc23)cc1 | 1 | 0.15
COc1ccc(-c2csc(NC(=O)C3COc4ccccc4O3)n2)cc1 (centres undefined) | 1.1 | 0.88
Cc1ccccc1NS(=O)(=O)c1ccc2[nH]cc(C(=O)NC(C)c3ccccc3)c(=O)c2c1 (centres undefined) | 1 | 1.8
CCOc1ccc(-c2nc3cc(NC(=O)c4ccccc4OC)ccc3o2)cc1 | 1.1 | 1.4
Cc1csc2ncc(C(=O)Nc3ccc(F)c(F)c3)c(=O)n12 | 1 | 1.2
COC(=O)c1cccc(NC(=O)c2c(Cl)ccc(Cl)c2OC)c1 | 1.2 | 0.28
Brc1ccc(-c2nnc3ccc(Oc4ccccc4)nn23)cc1 | 0.97 | -1.3
Cc1nc2cc(-c3ccc(Cl)cc3)nn2c(C)c1CCC(=O)NCc1ccccc1 | 1.1 | 1.3
COc1ccccc1CNC(=O)C1CCN(C(=O)c2sccc2-n2cccc2)CC1 | 1.1 | 2.4
CCOc1ccc(NC(=O)c2cc3n(n2)C(C(F)(F)F)CC(c2ccc4c(c2)OCO4)N3)cc1 (centres undefined) | 0.95 | -0.048
O=C(Nc1ccc2snnc2c1)NC1CCCC1 | 1 | 0.7
COC(=O)c1cccc(Nc2cc(C)nc3c(C)cc(C)cc23)c1 | 0.82 | -2.6
Nc1c(C(=O)NCCCN2CCOCC2)nnn1Cc1ccc(Cl)cc1 | 1.2 | 1.9
Cc1noc(C)c1S(=O)(=O)N(CC(=O)NC1CCCCCC1)c1ccc(C(C)C)cc1 | 1.1 | 0.59
O=C(c1ccncc1)c1c(Nc2ccc(F)cc2)[nH]c(=O)c2ccccc12 | 0.94 | -0.82
CC1(C)CC(=O)N(CC(=O)NCC2CCCO2)c2ccccc2S1 (centres undefined) | 1.1 | 3.3
CCN1CCN(C(=O)c2sc3nc(C)nc(N4CCC(C)CC4)c3c2C)CC1 | 0.83 | -2.4
COCCn1c(=O)[nH]c2cc(C(=O)NCCCN3CCCC3=O)ccc2c1=O | 1 | 0.61
Cc1ccc2nc(-c3ccsc3)c(NC3CCCC3)n2c1 | 1.1 | 1.4
O=C1c2ccccc2C(Nc2cc(Cl)ccc2Cl)N1c1cccnc1 (centres undefined) | 1 | 0.34
Cc1cc(C)c(NC(=O)CSc2nccn2-c2ccccc2)c(C)c1 | 1 | 0.037
Cc1cccc(NC(=O)CN2C(=O)COc3ccc(Cl)cc32)c1C | 1 | 0.61
CCN1CCN(CCNC(=O)c2cc(Nc3ccc(OC)cc3OC)nc3ccccc23)CC1 | 0.78 | -3.3
COc1cccc(CN2C(=O)c3ccccc3Sc3ccc(C(=O)NCCc4ccccc4)cc32)c1 | 0.87 | -0.56
O=C(NCCN1CCCC1)c1ccc2c(c1)N(Cc1ccc(F)cc1)C(=O)c1ccccc1S2=O (centres undefined) | 1.1 | 1.5
COc1ccccc1NC(=O)c1c(NCc2cccnc2)sc2c1CCC2 | 0.53 | -9.3
CC(=O)Nc1cccc(-c2nc(-c3ccccc3)nc3ccccc23)c1 | 1 | 0.032
O=C(NCc1ccccc1)c1cc(-c2ccc3c(c2)OCO3)on1 | 1.2 | 2.6
CC(c1ccccc1)N1C(=O)CCC1(C)C(=O)NC1CCCCCCC1 (centres undefined) | 1.2 | 1.8
O=C(Nc1ccc(Cl)cc1)N(Cc1cccnc1)Cc1ccccc1Cl | 1 | 0.97
COc1ccccc1N1CCN(C(=O)c2cn(C)c(=O)c3ccccc23)CC1 | 1 | 0.066
CCCNC(=O)c1cnn2c(C)c(Cc3ccc(Cl)cc3)c(C)nc12 | 1 | 0.2
CCc1ccccc1NC(=O)c1cc(CC(C)C)on1 | 1.1 | 3.3
O=c1[nH]nc(Cc2ccccc2)c2ccccc12 | 0.87 | -2.1
CC1CCC(N2CC(=O)N(C3CCCCCCC3)C(c3ccc(Cl)cc3)C2=O)CC1 (centres undefined) | 1 | 1

As a working copy, part of the list above:
structure | CBX7 AlphaScr | CBX7 AlphaScr z-score
Cc1csc2ncc(C(=O)Nc3ccc(F)c(F)c3)c(=O)n12 | 1 | 1.2
COC(=O)c1cccc(NC(=O)c2c(Cl)ccc(Cl)c2OC)c1 | 1.2 | 0.28

Additional results follow.
structure | CBX7 AlphaScr | CBX7 AlphaScr z-score
O=C(C1CC1)N1CCc2cc(S(=O)(=O)NC3CCCCCC3)ccc21 | 1 | 0.24
O=C(NCc1ccc2c(c1)OCO2)C1C2C=CC3(CN(Cc4ccccc4Cl)C(=O)C13)O2 (centres undefined) | 1 | 1.5
O=C(O)c1ccc2c(c1)ncn2CCCN1CCOCC1 | 1 | 0.66
Cc1nccc2[nH]c(=O)c(C(=O)NC3CCCCCC3)cc12 | 0.96 | -0.25
CCn1c(C)nc2cc(S(=O)(=O)NC)ccc21 | 1 | 0.33
CCOc1ccc(CCN2C(=O)c3ccccc3C2C(=O)NC2CCCC(C)C2C)cc1OCC (centres undefined) | 1.1 | 2.4
COc1ccc(C(=O)N(Cc2nc(-c3ccc(Cl)cc3)no2)C(C)C)cc1 | 0.77 | -2.3
CC1=Nc2cc(C(=O)NCCCN3CC(C)CC(C)C3)ccc2Sc2ccc(Cl)cc21 (centres undefined) | 1.3 | 3.6
CC1CCN(c2ncnc3sc4c(c23)CCCC4)CC1 | 0.93 | -1.4
O=C(Nc1nnc(-c2ccccc2Cl)s1)c1ccccc1F | 1 | 0.59
Cc1ccc2[nH]c(C)c(CN3CC(C)OC(C)C3)c(=O)c2c1 (centres undefined) | 1.1 | 1.3
COc1ccc(-c2nc3cc(C)ccn3c2NC(=O)c2ccc(OC)cc2OC)cc1 | 0.92 | -0.15
Cc1c(CNC(C)c2ccccc2)c(C(=O)O)c(C)n1Cc1ccccc1 (centres undefined) | 0.98 | -0.81
Cc1nnc(Nc2ccc(Br)cc2)[nH]c1=O | 1 | 0.068
COC(=O)c1ccc(COc2cccc3cc([N+](=O)[O-])cnc23)cc1 | 0.98 | -0.48
Fc1ccc(-c2sc(Nc3ccc(Cl)c(Cl)c3)nc2C(F)(F)F)cc1 | 1.3 | 3.6
O=C(Nc1ccc(Cl)c(-c2nc3ccccc3[nH]2)c1)c1cccc(Cl)c1 | 1 | 0.34
CCOc1ccccc1C(=O)Nc1c(-c2cccs2)nc2ccccn12 | 0.88 | -0.21
CCOCCCNC(=O)C1CCN(C(=O)c2cc3sccc3n2CC)CC1 | 1 | 0.13
COc1ccccc1-c1cc(=O)n(CC(=O)NCc2ccccc2)c2c1CCCC2 | 0.84 | -3.6
CCN(CC)C(=O)CCc1nc(-c2ccc(C)cc2)no1 | 1.2 | 3.7
CCN(CC)S(=O)(=O)c1csc(C(=O)Nc2ccc(C)cc2)c1 | 0.97 | -0.69
O=C(NC1CC1)c1ccc2c(c1)NC(=O)c1ccccc1N2 | 0.86 | -2.1
COc1ccc(Nc2nnc(-c3ccc(C)c(S(=O)(=O)NCCO)c3)c3ccccc23)cc1 | 0.74 | -4.9
CCOC(=O)C1CCCN(c2c(NCCCN3CC(C)CC(C)C3)c(=O)c2=O)C1 (centres undefined) | 0.93 | -1.7
O=C1Nc2ccccc2OC1CC(=O)N1CCOCC1 (centres undefined) | 1 | 0.11
COc1ccc(CNC(=O)C2CC(c3ccc(OC)c(OC)c3)=NO2)cc1 (centres undefined) | 1.1 | 2
CCOc1ccc(S(=O)(=O)c2cn(Cc3cc(C)ccc3C)c3ccc(OCC)cc3c2=O)cc1 | 0.9 | -3.7
CCC(C)NC(=O)C1CCCN(Cc2nc(-c3cccc(Cl)c3)oc2C)C1 (centres undefined) | 1 | 0.82
CCOc1ccc(S(=O)(=O)c2cn(Cc3cccc(F)c3)c3ccc(OC)cc3c2=O)cc1 | 0.97 | -0.97
O=S(=O)(CCc1nc2ccccc2[nH]1)c1ccc(Br)cc1 | 0.98 | -0.94
COc1cccc(C(=O)Nc2cccc3c2C(=O)N(c2ccccc2)C3=O)c1 | 1.1 | 0.26
Cc1ccc(-c2nc3cc(C(F)(F)F)cc(Br)c3nc2-c2ccc(C)cc2)cc1 | 1.2 | 1.2
N#Cc1nc(-c2ccccc2F)oc1NCCN1CCOCC1 | 0.96 | -0.4
CN(C(=O)CCc1nc(-c2ccccc2F)no1)c1ccc(Br)cc1 | 1 | -0.077
Cc1cc(N2CCCCC2)nc2ccc(NC(=O)c3ccncc3)cc12 | 0.82 | -1.1
COc1ccccc1CNC(=O)C(Cc1ccccc1)NS(=O)(=O)c1ccc2c(c1)CCC(=O)N2 (centres undefined) | 0.93 | -1.3
CCOCCCNC(=O)C(NC(=O)c1ccc(=O)[nH]c1)c1ccccc1 (centres undefined) | 1 | 0.099
COc1ccc(-c2noc(CCC(=O)Nc3nc4ccccc4s3)n2)cc1 | 0.82 | -2.8
COc1cc(C2c3c(-c4ccccc4)n[nH]c3C(=O)N2c2ccc(Cl)cc2)ccc1O (centres undefined) | 0.82 | -1.8
COc1ccc(C)cc1NC(=O)c1sc2ncn(CC(=O)N3CC(C)CC(C)C3)c(=O)c2c1C (centres undefined) | 1 | 0.49
CCN(CC)C(=O)c1c[nH]c2ccc(S(=O)(=O)Nc3ccc(F)cc3F)cc2c1=O | 0.94 | -0.78
CC(C)(C)c1ccc(C2CC(=O)c3cnc(NC(=O)c4ccccc4)nc3C2)cc1 (centres undefined) | 1.1 | 0.78
COc1ccc(-n2c3c(cc(C(=O)Nc4ccc(C)cc4)c2=O)C(=O)CC(C)(C)C3)cc1 | 0.78 | -0.78
CCn1c(SCc2nc(-c3ccccc3)no2)nc2ccccc21 | 1.2 | 2.3
O=C(c1cn(-c2ccccc2)nc1-c1cccnc1)N1CCCCC1 | 1 | 0.54

Arranged by molecular weight (low to high): part of the list above
structure | CBX7 AlphaScr | CBX7 AlphaScr z-score
CCn1c(SCc2nc(-c3ccccc3)no2)nc2ccccc21 | 1.2 | 2.3
CCOCCCNC(=O)C(NC(=O)c1ccc(=O)[nH]c1)c1ccccc1 (centres undefined) | 1 | 0.099
COc1ccc(-c2noc(CCC(=O)Nc3nc4ccccc4s3)n2)cc1 | 0.82 | -2.8
CN(C(=O)CCc1nc(-c2ccccc2F)no1)c1ccc(Br)cc1 | 1 | -0.077
COc1cc(C2c3c(-c4ccccc4)n[nH]c3C(=O)N2c2ccc(Cl)cc2)ccc1O (centres undefined) | 0.82 | -1.8
CCN(CC)C(=O)c1c[nH]c2ccc(S(=O)(=O)Nc3ccc(F)cc3F)cc2c1=O | 0.94 | -0.78
COc1ccccc1CNC(=O)C(Cc1ccccc1)NS(=O)(=O)c1ccc2c(c1)CCC(=O)N2 (centres undefined) | 0.93 | -1.3

The list is partial. The share of hits here may be higher or lower than overall.
